HPGD inh – blocks human HPGD enzyme activity; P15428; purified HPGD, NADH fluorescence kinetic, PGE2 substrate; Potency, µM, inactives show at the top dose activity change, negative = inhibition, usual class: inhibitors; 150,000 compounds, 4.3% hits; AID 894; active = well fitted inhibition curve with a large enough effect (not every such curve was filed as active); inconclusive = small, poorly fitted or top-dose-only effect, or another doubt; inactive = no such curve, though single readings can be large or run the other way;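 also: top concentration of the series not given in the record; plate controls included wells without enzyme; inactives centre near -10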
Target sequence (P15428 whole entry, looked up): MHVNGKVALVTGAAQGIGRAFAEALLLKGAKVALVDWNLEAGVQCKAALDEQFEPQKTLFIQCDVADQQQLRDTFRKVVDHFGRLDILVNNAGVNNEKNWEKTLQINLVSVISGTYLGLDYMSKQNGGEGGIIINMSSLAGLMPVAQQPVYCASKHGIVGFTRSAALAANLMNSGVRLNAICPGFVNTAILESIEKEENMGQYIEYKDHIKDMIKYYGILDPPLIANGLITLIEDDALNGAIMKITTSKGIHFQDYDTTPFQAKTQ
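20 nM HPGD preincubated 15 min at room temperature with compound in 50 mM Tris-HCl pH 8, 0.01% Tween 20. Started with 1 mM NAD+ and 30 uM prostaglandin E2; NADH fluorescence (360/450 nm) read 5 times over 30-s intervals, last minus first.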
Active calls of the source: *; ? = inconclusive. % is scaled to controls: 0 for no effect and ±100 for the full control effect; potency is read from the fitted curve at half-maximal effect.

SMILES	HPGD inh
COC(=O)[C@@H]1CC2=CC(=O)CC[C@]2(C)[C@@]23O[C@@H]2C[C@@]2(C)[C@H](CC[C@@]24CCC(=O)O4)[C@@H]13	-13%
OCCN1CCOCCN(CCO)CCOCC1	1%
O=C(NCC1(c2ccccc2)CCCC1)c1ccccc1Br	-4%
O=C1c2ccccc2C(=O)N1c1cccc(-c2csc(Nc3ccc4c(c3)OCO4)n2)c1	-17%
CCN(CC)C(=O)COC(=O)c1cc(-c2ccc(OC)cc2)nc2ccccc12	?
Cc1cc(C)n(C(=O)c2ccc([N+](=O)[O-])c(Cl)c2)n1	-17%
Cn1c(=O)c2c(nc(CN3CCOCC3)n2CCCO)n(C)c1=O	-7%
CCc1c(C)nc2ncnn2c1N1CCC(C(=O)NCc2ccc3c(c2)OCO3)CC1	?
O=C(CN1CCC(n2nnc3cc(F)ccc32)CC1)NCc1ccco1	-20%
O=C(/C=C\NCC(=O)c1ccccc1)c1ccc(F)cc1	-21%
CCOCCn1c(SCc2ccc(C)cc2)nc2c1c(=O)[nH]c(=O)n2C	-10%
Cc1cccc(S(=O)(=O)c2c(N)n(Cc3ccco3)c3nc4ccccc4nc23)c1	?
Cc1ccc(CNC(=O)C2CCCN(S(=O)(=O)c3c(C)n[nH]c3C)C2)cc1 (configuration not stated)	-1%
COc1cc(-c2nc3oc4ccccc4c(=O)c3c(=O)n2Cc2ccco2)cc(OC)c1OC	-8%
Cc1cc(OCCN2CCOCC2)nc2ccccc12	0%
Cc1c(C)c2ccc(Oc3ccc([N+](=O)[O-])cc3C(F)(F)F)c(C)c2oc1=O	-7%
c1csc(-c2nnc(-c3ccc(N4CCOCC4)cc3)o2)c1	?
COc1ccc(NC(=O)CSc2nnc(-c3ccccn3)n2N)cc1Cl	-18%
Cc1cc(C(=O)CSc2nnc(-c3ccc(F)cc3)o2)c(C)n1CC1COc2ccccc2O1 (configuration not stated)	-10%
CC1(C)CC(=O)C2=C(C1)NC1=C(C(=O)c3ccccc31)C2c1ccc(Cl)cc1 (configuration not stated)	-5%
Cc1nc(NC(=O)/C=C/c2ccccc2)n[nH]1	-1%
Cc1ccc(CCCOC(=O)C[N+]2(C)CCOCC2)cc1	-3%
COC(=O)c1onc(-c2c(OC)cc(OC)cc2OC)c1C(=O)OC	-4%
CCc1nc(C)ccc1OCC(=O)O	1%
S=C(c1ccc(-c2ccc(Cl)cc2Cl)o1)N1CCCCC1	?
Cc1ccc(-n2cccc2/C=C2/NC(=O)N(CC(=O)Nc3cccc(C)c3)C2=O)cc1	-11%
CCOC(C)(C)C	-1%
CCC(=O)N1c2ccccc2C(N(C(C)=O)c2ccccc2)CC1C (configuration not stated)	-9%
COc1ccccc1/C=C1\S/C(=N/NC(=O)c2cccc(Br)c2)NC1=O	11µM*
Cc1cc(C)c(C#N)c(SCC(=O)N(C)C2CCCCC2)n1	-26%
CCN1CCCC1CNS(=O)(=O)c1ccc(C(=O)Nc2ccccc2)cc1 (configuration not stated)	2%
CCOCCCn1cnc2c(c1=O)c1nc3ccccc3nc1n2-c1ccc(C)cc1	-23%
COc1ccc(C2CC(=O)Nc3ccccc3S2(=O)=O)cc1OC (configuration not stated)	-14%
CCOc1ccc(OCc2cccc(C(=O)N/N=C/c3cccnc3)c2)cc1	-15%
O=C1CC(N2CCN(S(=O)(=O)c3cccc(C(F)(F)F)c3)CC2)C(=O)N1Cc1ccccc1 (configuration not stated)	-11%
Nc1nc(SCC(=O)O)[nH]c(=O)c1N	-10%
CCOC(=O)c1cc(NC(=O)c2ccoc2C)cc(C(=O)OCC)c1	-22%
CC(C)CC(c1nnnn1Cc1cccs1)N1CCN(c2nc3ccccc3s2)CC1 (configuration not stated)	-11%
O=C(CSc1nc2ccccc2[nH]1)N/N=C/C=C/c1ccccc1[N+](=O)[O-]	-10%
C=CCn1c(SCc2c(F)c(F)c(F)c(F)c2F)nc(O)cc1=O	-8%
CCOC(=O)c1cc(-c2ccccc2)sc1NC(=O)C(C)OC(=O)c1cccnc1OCC (configuration not stated)	?
Cc1cccn2c(=O)c3cc(C(=O)NCCN4CCOCC4)n(Cc4ccccc4)c3nc12	?
O=C(C1CCN(c2nnc(N3CCCC3=O)s2)CC1)N1CCN(Cc2ccc3c(c2)OCO3)CC1	-18%
CCCN1CCN(CCCNC(=O)C2CCCN(c3nc4ccc(OCC)cc4s3)C2)CC1 (configuration not stated)	-20%
Cc1nn2c(C(F)(F)F)cc(-c3ccc(Cl)cc3)nc2c1C(=O)N1CCOCC1	?
CCOC(=O)CN1c2ccccc2NC(=O)CC1C (configuration not stated)	2%
O=C1c2cccc(OCC(=O)N3CCCc4ccccc43)c2CCN1Cc1ccc(Br)cc1	-6%
O=C1OCC2=C1C(c1ccc3c(c1)OCO3)Sc1ccccc1N2 (configuration not stated)	-25%
CCN(CC)c1ccc(C=Nc2ccc(C#N)cc2)c(O)c1	28µM*
CS(=O)(=O)N(Cc1ccccc1F)c1ccccc1	-7%
Cc1ccccc1C(=O)NNC(=O)C(=O)N1CCCCC1	2%
O=C(C(=O)N1CCc2ccccc2C1)c1cn(CC(=O)N2CCCCC2)c2ccccc12	-18%
Clc1ccc(CC[C@H](Cn2ccnc2)Sc2c(Cl)cccc2Cl)cc1	-14%
CC(=O)N1CCN(S(=O)(=O)c2ccc(S(=O)(=O)NCC(C)C)cc2)CC1	-8%
COc1ccc(N(C)C(=O)Nc2ccc3c(c2)nnn3C)cc1	-15%
CN1CCN(c2ccc(S(=O)(=O)Nc3ccccc3)cc2[N+](=O)[O-])CC1	-14%
CCC(CC)c1nnc(NC(=O)c2ccc3ccccc3n2)s1	-11%
CCN(CC)C(=O)C(C)N(C#N)c1nc(SC)nc(N(C)C)n1 (configuration not stated)	1%
Cn1c(=O)[nH]c(Nc2ccc(F)cc2)c([N+](=O)[O-])c1=O	-29%
COc1cccc(OC)c1OCCCOc1ccc([N+](=O)[O-])cc1Cl	16µM*

The listing continues:
SMILES	HPGD inh
COc1ccccc1OCCCn1c(=O)oc2ccc(C)cc21	0%
COc1ccc(/C(C)=N/OCC(=O)Nc2nc3ccccc3s2)cc1OC	-20%
CCOc1ccc(N2C(=O)NC(Cc3c[nH]c4ccccc34)C2=O)cc1 (configuration not stated)	-8%
CCCc1nn2c(=O)c(C(c3cccc(Cl)c3)c3c(O)nc4sc(CCC)nn4c3=O)c(O)nc2s1	-18%
Cc1ccc2nc(CCc3nc4ccc(C)cc4o3)oc2c1	-5%
O=C(O)C1C2CCC(C2)C1C(=O)Nc1cc(F)ccc1F (configuration not stated)	-17%
COc1ccc(NC(=O)CSc2nnc(Cc3cccn3C)n2-c2ccc(F)cc2)cc1OC	-16%
COc1ccc(-n2c(=O)cc(N3CCOCC3)[nH]c2=O)cc1	-5%
CCc1ccc(/C=N/n2c(C)cc(C)c(C#N)c2=O)cc1	-26%
O=C(O)CSC(=S)N1CCCCC1	-14%
CC1=C(C(=O)OC2CCCCCCC2)C(c2cc3c(cc2Br)OCO3)CC(=O)N1 (configuration not stated)	-27%
Cc1ccc(C(=O)CNc2ccc(C)c(Cl)c2)cc1	-30%

Looked up one by one from the list above:
SMILES	HPGD inh
Cc1ccc2nc(CCc3nc4ccc(C)cc4o3)oc2c1	-5%
CCCc1nn2c(=O)c(C(c3cccc(Cl)c3)c3c(O)nc4sc(CCC)nn4c3=O)c(O)nc2s1	-18%

The list goes on:
SMILES	HPGD inh
O=C(c1ccccc1)c1cc([N+](=O)[O-])ccc1N1CCOCC1	-7%
CC(=O)c1nn(-c2cccc(Br)c2)cc1C(=O)c1ccc2ccccc2c1	-6%
C=CCn1c(=O)c2ccccc2n2c(SCC(=O)Nc3cc(C)on3)nnc12	-2%
COc1cccc(-c2nc(-c3ccc(NC(=O)c4cccnc4)cc3)no2)c1	-17%
COc1cccc(-n2nnnc2SCC(=O)NCc2ccc3c(c2)OCO3)c1	-13%
O=C(Nc1ccccc1Br)c1ccccc1-c1ccccc1	-2%
CN(/N=C\c1ccccc1O)c1ccc2ccccc2n1	-4%
N#Cc1c(C(F)(F)F)cc(-c2ccccc2)[nH]c1=O	?
COc1ccc(OC)c(-n2c(SCC(C)=O)nnc2-c2cccc(S(=O)(=O)N(C)C)c2)c1	-19%
CCNc1nnc(CSc2nc3ccccc3s2)s1	-17%
CO[C@H]1OC[C@@]2(C)[C@@H]3C4=C(CN2C(=O)OC(C)(C)C)[C@H](C)[C@H](CO)[C@H](CO)[C@H]4CC[C@H]13	-18%
Cc1ccccc1-c1nnc2c3ccccc3c(C)nn12	-22%

Given with bars between the fields: part of the list above.
molecule | HPGD inh
CCC(=O)N1c2ccccc2C(N(C(C)=O)c2ccccc2)CC1C (configuration not stated) | -9%
COc1ccccc1/C=C1\S/C(=N/NC(=O)c2cccc(Br)c2)NC1=O | 11µM*
Cc1cc(C)c(C#N)c(SCC(=O)N(C)C2CCCCC2)n1 | -26%
CCN1CCCC1CNS(=O)(=O)c1ccc(C(=O)Nc2ccccc2)cc1 (configuration not stated) | 2%
CCOCCCn1cnc2c(c1=O)c1nc3ccccc3nc1n2-c1ccc(C)cc1 | -23%
COc1ccc(C2CC(=O)Nc3ccccc3S2(=O)=O)cc1OC (configuration not stated) | -14%
CCOc1ccc(OCc2cccc(C(=O)N/N=C/c3cccnc3)c2)cc1 | -15%

Continued.
SMILES	HPGD inh
Cn1cnc([N+](=O)[O-])c1Sc1nnc(-c2cccnc2)n1C	0%
COc1ccc(/C=N/Nc2ncc(-c3ccccc3)cn2)c(OC)c1	-3%
O=C(Cc1ccccc1)Nc1ccc(N2CCOCC2)cc1N1CCOCC1	-5%
C=CCNS(=O)(=O)c1nc(C)c(Cl)c(C)c1C#N	-13%
O=[N+]([O-])c1ccc(/C=N/Nc2nc(N3CCCC3)nc(N3CCCC3)n2)o1	-23%
Cc1cc(C)n2c3c(c(C#N)c2n1)CCCC3	-6%
COC(=O)c1cc(-c2ccccc2)sc1NC(=O)CN1C(=O)c2ccccc2C1=O	?
Cc1ccc(Oc2ncc(-c3ccc(Cl)cc3)cn2)cc1	-11%
CCCC(C)CO (configuration not stated)	2%
COCCNC(=O)C1CC(c2cccc([N+](=O)[O-])c2)=NO1 (configuration not stated)	-18%
O=C(c1ccc(S(=O)(=O)N2CCCC2)cc1)N1CCN(Cc2ccc3c(c2)OCO3)CC1	3%
O=C(CCCn1c(=S)[nH]c2cc3c(cc2c1=O)OCO3)N1CCN(c2ccc(Cl)cc2)CC1	-14%
C#CCCCCCCCCCCCc1ccco1	-23%
C/C(=N\NC(=O)c1ccco1)c1cc2ccccc2o1	-20%
CC1CCN(C(=S)NC2CCCCC2)CC1	-10%
COc1cccc2cc(C(=O)N3CCC(C)CC3)c(=O)oc12	13µM*
COC(=O)c1ccccc1N(C)C(=O)C12CCC(C)(C(=O)O1)C2(C)C (configuration not stated)	-2%
COC(=O)c1ccsc1NC(=O)CN1CCN(c2ccc(F)cc2)CC1	-7%
CCCc1cc(=O)oc2cc(OCC(=O)NCc3cccs3)ccc12	?
O=C(Nc1c(C(=O)N2CCOCC2)cnn1-c1ccccc1Cl)c1ccco1	-2%
C=CCN(CC=C)c1nc2ccccc2nc1C(C#N)C(=O)OCCOC (configuration not stated)	?
Clc1ccc(CSc2nnc([C@@H]3CCCN3)o2)cc1Cl	-9%
COC(=O)C1=C(N)Oc2cc(C)n(CC3CCCO3)c(=O)c2C1c1ccc(Cl)cc1 (configuration not stated)	-22%
CCOC(=O)c1c(C)[nH]c(C(=O)COC(=O)COc2ccccc2C=O)c1C	-19%

Reformatted as a markdown table: three of the compounds above
| Compound | HPGD inh |
| --- | --- |
| COC(=O)c1ccccc1N(C)C(=O)C12CCC(C)(C(=O)O1)C2(C)C (configuration not stated) | -2% |
| COC(=O)c1ccsc1NC(=O)CN1CCN(c2ccc(F)cc2)CC1 | -7% |
| CCCc1cc(=O)oc2cc(OCC(=O)NCc3cccs3)ccc12 | ? |

(cont.)
SMILES	HPGD inh
COc1cccc(NC(=O)Cn2cnc3sc(C)c(S(=O)(=O)N4CCCCC4)c3c2=O)c1	-5%
CS(=O)(=O)c1ccc2nc(NC(=O)Nc3ccc(Cl)cc3)sc2c1	-12%
CCn1c(CNc2ccc(Cl)cc2)nnc1SCc1ccc(Cl)cc1	-10%
C=CCn1c(CSc2nc3ccccc3s2)nnc1SCC(=O)OCC	4%
CCOC(=O)CNC(=O)CSc1nnc(C)c(=O)[nH]1	-7%
Cc1cc(C)nc(NS(=O)(=O)c2ccc(NC(=S)NC(=O)C3CCCC3)cc2)n1	-7%
CCCOc1ccc(CSc2nnc(CCC)n2N)cc1	-23%
Cc1ccc(Nc2nc(Oc3ccc(OCc4ccccc4)nn3)nc(N3CCOCC3)n2)cc1	-8%
Cc1ccc(CC(=O)Nc2ccc(F)c([N+](=O)[O-])c2)cc1	-6%
CCC(C)(C)n1nnnc1C(c1ccccc1)N1CCc2ccccc2C1 (configuration not stated)	-2%
CC(=O)Oc1ccc(-c2cccc(C(=O)Oc3ccccc3)c2)cc1	-16%
Cc1ccc(S(=O)(=O)NCCNC(=O)c2nonc2N)cc1	-12%
CCOC(=O)c1c(C)[nH]c(C(=O)COC(=O)c2oc3ccc(OC)cc3c2C)c1C	?
Cc1nnc2n(c1=O)C(CS(=O)(=O)c1ccccc1)CS2 (configuration not stated)	-6%
COC(=O)c1ccc(Oc2nc(Nc3ccccc3)nc(N(C)C)n2)cc1	-7%
CCN(CC)S(=O)(=O)c1ccc(C(=O)Nc2c3c(nn2C(C)(C)C)CS(=O)(=O)C3)cc1	-16%
Nc1ncnc2c1ncn2[C@H]1O[C@@H](C(=O)O)[C@@H](O)[C@H]1O	0%
O=C(CN1CCCCCC1=O)OCc1ncc(-c2ccccc2)o1	-10%
CC(C)(C)c1ccc(C(=O)N2CCC(C(=O)NCc3ccco3)CC2)cc1	-4%
COC(=O)/C(=N/Nc1ccc(C)cc1)N1CCCc2ccccc21	-7%
COc1ccc(OC)c(C2C(C(C)=O)=C(O)C(=O)N2CCc2ccc(OC)c(OC)c2)c1 (configuration not stated)	-19%
COC(=O)CSc1nnc2n(-c3ccc(OC)cc3)c(=O)c3c4c(sc3n12)CCCCC4	-4%

Screens from PubChem BioAssay.

These rows are one share of the data; count on the stated rates, not on these rows.
